Cruzain inh noDet: cruzain (T. cruzi) inhibition without detergent; purified cruzain, Z-FR-AMC fluorescence, no detergent; Potency, µM, for the others: max response, negative = inhibition, actives largely listed as inhibitors; actives 2.3% (n = 200,000); AID 1476;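 also: plate controls were enzyme without inhibitor for no effect and buffer without enzyme for full effect; nearly all actives have a fitted effect of over 40% in size; top concentration of the series not given in the record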
Target sequence (P25779 123-467 limits assumed): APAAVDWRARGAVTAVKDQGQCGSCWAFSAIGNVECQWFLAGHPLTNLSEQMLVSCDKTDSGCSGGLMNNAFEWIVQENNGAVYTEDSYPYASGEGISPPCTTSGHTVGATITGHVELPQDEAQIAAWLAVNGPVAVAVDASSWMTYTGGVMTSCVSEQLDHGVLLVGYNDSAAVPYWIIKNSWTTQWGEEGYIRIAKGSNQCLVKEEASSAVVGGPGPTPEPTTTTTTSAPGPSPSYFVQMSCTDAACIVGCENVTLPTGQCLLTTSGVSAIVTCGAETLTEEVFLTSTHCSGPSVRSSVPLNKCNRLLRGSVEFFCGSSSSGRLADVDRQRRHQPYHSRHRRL
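Purified cruzain at 1.5 nM, pre-incubated 15 min with compound at room temperature in 100 mM sodium acetate pH 5.5, 5 mM DTT, 0.00005% Triton X-100. Reaction started with 2 uM Z-FR-AMC; AMC fluorescence increase over 60 s gives rate.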
Cruzain Triton: inhibitors of Trypanosoma cruzi cruzain with detergent | AID 1478 | Potency, µM, for inactives: max response, negative = inhibition, hits mostly inhibitors | actives 0.43% (n = 200,000) | purified cruzain, Z-FR-AMC fluorescence, 0.01% Triton | P25779;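 also: plate controls were neutral wells for no effect and buffer without enzyme for full effect; nearly all actives have a fitted effect of over 40% in size; top concentration of the series not given in the record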
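Cruzain (1.5 nM) preincubated 15 min at RT with compound in 100 mM sodium acetate pH 5.5, 5 mM DTT, 0.01% Triton X-100. Reaction started with 2 uM Z-FR-AMC; AMC fluorescence (ex 360/em 450 nm) change over 60 s gave rate.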
Numbers without * were called inactive; ? = inconclusive; & = joins results of further samples. Calls follow the shape of the dose curve; as a rule, active = well fitted curve in the direction sought with a large enough effect; inconclusive = small, poorly fitted or top-dose-only effect, or another doubt; inactive = no such curve, though single readings can be large; an effect the other way counts as inactive or inconclusive. Potency is read from the fitted curve at half-maximal effect. These rows are one share of the data, so the mix of outcomes need not match the whole.

| mol | Cruzain inh noDet | Cruzain Triton |
| --- | --- | --- |
| O=c1cc(-c2ccc(O)cc2)oc2c([C@H]3O[C@@H](CO)[C@@H](O)[C@@H](O)[C@@H]3O)c(O)cc(O)c12 | -18.9% | -7.3% |
| CC(=O)OCC(=O)[C@@]12OC3(CCCC3)OC1CC1C3CCC4=CC(=O)C=C[C@@]4(C)[C@]3(F)C(O)C[C@]12C (stereo partly drawn) | ? | -4.1% |
| CCC[C@@H]1C[C@@]1(CCC)C(NC(=O)c1ccco1)c1ccc(Cl)cc1 (stereo partly drawn) | -9.4% | -8.9% |
| COC(=O)[C@H](Cc1ccccc1)NC(=O)O[C@@H]1C(=O)c2ccc(OC)cc2O[C@H]1c1cccc(C(F)(F)F)c1 | 17.3% | -1.0% |
| CCC/C=C(\CCC)C(NC(=O)C(C)(C)C)c1ccc(C(=O)OC)cc1 (stereo not drawn) | 3.3% | -2.9% |
| CCCCOC(C)=O | -0.5% | -1.6% |
| C=C(C)C(N)=O | -2.4% | 1.2% |
| COc1ccccc1[C@@H]1C(c2ccc(F)cc2)=NN(c2ccc(Br)cc2)[C@H]1C(=O)N1CCOC1=O | 25.1µM* | 1.0% |
| COc1cc2c(c(OC)c1OC)-c1ccc(O)c(=O)cc1[C@H](N)CC2 | 18.6% | -7.1% |
| C[C@@H]1C[C@H]2[C@H]3C[C@@H](F)C4=CC(=O)C=C[C@]4(C)[C@@]3(Cl)[C@@H](O)C[C@@]2(C)[C@@H]1C(=O)COC(=O)C(C)(C)C | -7.8% | 2.2% |
| COc1ccc2c(c1)C(c1ccccc1OC)CC(=O)O2 (stereo not drawn) | ? | -15.9% |
| CNc1ncnc2c1ncn2[C@@H]1O[C@H](CO)[C@@H](O)[C@@H]1O | -2.3% | 2.3% |
| NCCC[C@@H](CC(=O)N[C@@H]1CCCC[C@H]1C(=O)N[C@H](CC(=O)N[C@@H](CCC(=O)O)CC(=O)O)Cc1ccccc1)NC(=O)C[C@H](Cc1ccccc1)NC(=O)[C@@H]1CNCC[C@H]1N | 13.8% | -0.2% |
| C=CCC(C)(O)c1ccsc1 (stereo not drawn) | 4.3% | 4.4% |
| C=CCNC1=C2C[C@@H](C)C[C@H](OC)[C@H](O)[C@@H](C)/C=C(\C)[C@H](OC(N)=O)[C@@H](OC)/C=C/C=C(\C)C(=O)NC(=CC1=O)C2=O | 4.1% | -2.7% |
| CCOC(=O)CC(CC(C)=O)C(=O)OCC (stereo not drawn) | 1.1% | 3.9% |
| NC[C@@H]1O[C@H](O[C@H]2[C@H](O)[C@@H](O[C@H]3[C@H](O)[C@H](N)C[C@H](N)[C@H]3O[C@@H]3O[C@H](CO)[C@@H](O)[C@H](O)[C@@H]3N)O[C@H]2CO)[C@@H](N)[C@H](O)[C@@H]1O | 1.9% | 1.3% |
| C=C(C)[C@H]1CC[C@]2(CO)CC[C@]3(C)[C@@H](CC[C@H]4[C@@]5(C)CC[C@@H](O)C(C)(C)[C@@H]5CC[C@@]43C)[C@H]12 | -16.0% | -2.3% |
| CCCCC/C=C\C=C\C(O)CCCCCCCC(=O)O (stereo not drawn) | -16.8% | 1.8% |
| O=C(O)c1ccc2cc(-c3ccc(O)c(C45CC6CC(CC(C6)C4)C5)c3)ccc2c1 | -14.4% | ? |
| C[C@H](NC(=O)[C@@H]1C[C@H]1[C@@H](NC(=O)OCc1ccccc1)c1ccccc1)c1ccccc1 | 15.8µM* | 1.3% |
| COc1ccc(C2/C=C\C(c3ccc(OC)cc3)N(Cc3ccc(F)cc3)C(=O)C(=O)N2Cc2ccc(F)cc2)cc1 (stereo not drawn) | ? | -0.8% |
| COC(=O)c1ccc(C(NC(=O)OCc2ccccc2)/C(F)=C/[C@@H](C)C(=O)NCc2nc3ccccc3s2)cc1 (stereo partly drawn) | -0.2% | 1.4% |
| O=CC(O)C(O)C(O)C(O)CO (stereo not drawn) | -2.0% | 0.3% |
| C[Si](C)(C)C#Cc1ccccc1NC(=S)Nc1ccccc1 | -22.6% | -7.8% |
| COc1cc2c3cc1Oc1c(OC)c(OC)cc4c1[C@@H](Cc1ccc(O)c(c1)Oc1ccc(cc1)C[C@@H]3N(C)CC2)N(C)CC4 | 2.2% | -4.5% |
| COCCNC(=O)[C@@]1(Cc2ccccc2)C=C[C@@H](C)N1C(=O)OC | -10.7% | 5.5% |
| O=C(NCNC(=O)N[C@H]1C(=O)NC(=O)N1CO)N[C@H]1C(=O)NC(=O)N1CO | -20.1% | 0.7% |
| COc1ccc2c(=O)cc(-c3ccc(O)cc3)oc2c1 | 9.3% | -4.8% |
| COC(=O)c1ccc(C(NC(=O)OCc2ccccc2)/C(=C/[C@@H](C)C(=O)NCc2ccc(C)o2)c2cccnc2)cc1 (stereo partly drawn) | 0.0% | 3.4% |
| Cc1ccc(B(O)O)cc1 | 7.2% | 0.3% |
| O=Nc1ccc(Nc2ccccc2)cc1 | 7.94µM* | 7.08µM* |
| CO[C@@H](CCOCc1ccccc1)C[C@H]1O[C@H](C(=O)OC(C)C)C=C[C@@H]1C | ? | 4.8% |
| Oc1cc(Cl)c(Cl)cc1Cl | -1.4% | -7.3% |
| OCCCBr | 16.4% | 6.1% |
| CN1C[C@H](CO)C=C2c3cccc4[nH]cc(c34)C[C@@H]21 | -21.0% | -15.8% |
| CC(C)(C)C(=O)C1C(=O)c2ccccc2C1=O | -13.2% | -0.2% |
| COC(=O)N1[C@H](C)C=C[C@]1(Cc1ccccc1)C(=O)NCc1ccc(N(C)C)cc1 | -3.1% | 5.3% |
| COC(=O)[C@@]1(Cc2ccc(OC)cc2)[C@H]2c3cc(C(=O)N4CCCC4)n(CCc4ccccn4)c3C[C@H]2CN1C(=O)c1ccccc1 | ? | -5.8% |
| COC(=O)CCCC1=CC2=CC(=O)C(C)(OC(=O)c3cnc4ccccc4n3)C(=O)C2=CO1 (stereo not drawn) | -0.1% | 1.4% |
| CC(C)[C@H]1CC[C@@H](C)C[C@H]1O | -0.5% | -0.5% |
| CCCN(CCC)C(=O)SCC | -3.3% | 7.2% |
| COc1ccc2c(c1)O[C@@H](c1ccc3c(c1)OCO3)[C@H](OC(=O)NC1CCCC1)C2=O | 0.5% | 1.5% |
| CCCCNc1nc(C)nc2c1nc(-c1ccccc1)n2CCN1CCCCC1 | 14.1% | -0.8% |
| CN(C/C=C\c1ccccc1)Cc1cccc2ccccc12 | -16.3% | -8.7% |
| c1ccc2c(c1)Cc1cc3cc4c(cc3nc1-2)OCO4 | -0.7% | -14.5% |
| CC(C)n1c(/C=C\[C@@H](O)C[C@@H](O)CC(=O)O)c(-c2ccc(F)cc2)c2ccccc21 | ? | -4.0% |
| COC(=O)[C@@]1(Cc2ccc(OC)cc2)[C@H]2c3cc(C(=O)N(C)C)n(Cc4cc(C)n(C)n4)c3C[C@H]2CN1C(=O)c1ccccc1 | ? | -3.0% |
| C[N+](=O)[O-] | 5.5% | 5.6% |
| NC[C@@H]1O[C@@H](O[C@H]2[C@H](O)[C@@H](O[C@@H]3O[C@@H](CO)[C@H](O)[C@@H](N)[C@@H]3O)[C@H](N)C[C@@H]2N)[C@@H](O)[C@H](O)[C@H]1O | -0.2% | 0.2% |

Continuation:
Molecule,Cruzain inh noDet,Cruzain Triton
O=C(OOC(=O)c1ccccc1)c1ccccc1,0.7%,2.4%
Cc1cc2c(cc1Cl)C(c1ccccc1C)CC(=O)O2 (stereo not drawn),4.4%,-1.0%
COc1cc2c(cc1OC)-c1c(OC)c(OC)c(CO)c3c1C(C2)N(C)CC3 (stereo not drawn),-1.3%,1.3%
C[C@]12C[C@@](C)(C=C1/C=C/c1ccccc1)C(=O)C[C@H]2c1ccccc1,-3.5%,-1.6%
COC[C@H]1O[C@@H](c2c(OC)cc(OC)cc2OC)[C@H](OC)[C@@H](OC)[C@@H]1OC,-5.1%,-0.1%
COC(=O)[C@@]1(Cc2ccccc2)[C@H]2c3cc(C(=O)N(C)C)[nH]c3C[C@H]2CN1C(=O)c1ccccc1,?,-3.5%
O=C1OC2(c3cc(Br)c(O)c(Br)c3Oc3c2cc(Br)c(O)c3Br)c2c(Cl)c(Cl)c(Cl)c(Cl)c21,?,15.8µM*
CC(C)C[C@@H](CC(=O)N[C@@H](CCCN)CC(=O)N[C@@H]1CCCC[C@H]1C(=O)N[C@H](CC(=O)N[C@@H](CCC(=O)O)CC(=O)O)CC(C)C)NC(=O)[C@@H]1CNCC[C@H]1N,-11.5%,2.1%
Clc1ccc(Cl)c(Cl)c1Cl,-7.3%,2.2%
COC(=O)[C@H](COC(C)(C)C)NC(=O)O[C@@H]1C(=O)c2cc(Br)ccc2O[C@H]1c1cccc(OC)c1,4.8%,-1.1%
NCC[C@H](O)C(=O)N[C@H]1C[C@@H](N)[C@@H](O[C@H]2O[C@@H](CN)[C@@H](O)[C@@H](O)[C@@H]2N)[C@@H](O[C@H]2O[C@@H](CO)[C@@H](O)[C@@H]2O)[C@@H]1O,-7.4%,-0.5%
CCCCC[C@H](O)/C=C/[C@@H]1[C@H]2C/C(=C/CCCC(=O)O)O[C@H]2C[C@H]1O,-5.4%,4.6%
CN(Cc1ccc(C(C)(C)C)cc1)Cc1cccc2ccccc12,-4.0%,-1.9%
CCCCCCCCCCCCCCCCCCOC[C@@H](O)COP(=O)([O-])OCC[N+](C)(C)C,-0.7%,1.3%
CN1[C@H](Cc2ccccc2)C=C[C@]1(C)C(=O)NCC1CC1,0.6%,-5.3%
CC(=O)OCC(=O)[C@@]1(OC(C)=O)[C@H](C)C[C@H]2[C@@H]3C[C@H](F)C4=CC(=O)C=C[C@@]4(C)[C@]3(F)[C@H](O)C[C@@]21C,?,-8.7%
COc1cccc(CS(=O)(=O)c2nnnn2CC(C)C)c1,-0.7%,-2.2%
COc1ccc(CCC(=O)c2c(O)cc(O[C@@H]3O[C@H](CO)[C@@H](O)[C@H](O)[C@H]3O[C@@H]3O[C@@H](C)[C@H](O)[C@@H](O)[C@H]3O)cc2O)cc1O,?,9.2%
Cc1cc2oc(=O)cc(-c3ccccc3)c2c(C)c1-c1ccoc1,-26.9%,-1.1%
Nc1nc2c(ncn2[C@@H]2O[C@H](CO)[C@@H](O)[C@H]2O)c(=O)[nH]1,3.6%,2.5%
COc1cc2c(cc1OC)-c1c(O)c(OC)cc3c1[C@H](C2)N(C)CC3,13.0%,8.6%
CC(=O)Oc1ccc(/C=C/C(=O)CC2OC(Oc3cc(OC(C)=O)c4c(c3)O[C@@H](c3ccc(OC(C)=O)cc3)CC4=O)C(OC(C)=O)C(OC(C)=O)C2OC(C)=O)cc1 (stereo partly drawn),-3.3%,-0.1%
CC([C@H](O)c1ccccc1)N(C)C (stereo partly drawn),0.0%,5.1%
N#Cc1ccc(CS(=O)(=O)c2ccccc2)cc1,0.1%,1.0%
OC[C@H]1O[C@@H]2O[C@H]3[C@H](O)[C@@H](O)[C@@H](O[C@H]4[C@H](O)[C@@H](O)[C@@H](O[C@H]5[C@H](O)[C@@H](O)[C@@H](O[C@H]6[C@H](O)[C@@H](O)[C@@H](O[C@H]7[C@H](O)[C@@H](O)[C@@H](O[C@H]8[C@H](O)[C@@H](O)[C@@H](O[C@H]1[C@H](O)[C@H]2O)O[C@@H]8CO)O[C@@H]7CO)O[C@@H]6CO)O[C@@H]5CO)O[C@@H]4CO)O[C@@H]3CO,-1.7%,14.6%

Fetched one by one from the list above (4):
Molecule,Cruzain inh noDet,Cruzain Triton
O=C1OC2(c3cc(Br)c(O)c(Br)c3Oc3c2cc(Br)c(O)c3Br)c2c(Cl)c(Cl)c(Cl)c(Cl)c21,?,15.8µM*
COc1ccc(CCC(=O)c2c(O)cc(O[C@@H]3O[C@H](CO)[C@@H](O)[C@H](O)[C@H]3O[C@@H]3O[C@@H](C)[C@H](O)[C@@H](O)[C@H]3O)cc2O)cc1O,?,9.2%
C[C@]12C[C@@](C)(C=C1/C=C/c1ccccc1)C(=O)C[C@H]2c1ccccc1,-3.5%,-1.6%
Cc1cc2oc(=O)cc(-c3ccccc3)c2c(C)c1-c1ccoc1,-26.9%,-1.1%

Carrying on.
Molecule,Cruzain inh noDet,Cruzain Triton
COc1cccc([C@@H]2Oc3ccc(OC)cc3C(=O)[C@H]2OC(=O)NCc2ccco2)c1,-1.7%,1.3%
Cn1c(N)c(C(=O)COC(=O)c2cc(C(F)(F)F)nc3c(C(F)(F)F)cccc23)c(=O)n(C)c1=O,0.0%,-6.3%
Nc1ccc(O)c(C(=O)O)c1,-1.0%&0.6%,-12.6%&-20.1%
ClC(Cl)=C(Cl)Cl,1.5%&-1.5%,1.1%&2.1%
O=[N+]([O-])c1cccc(C2=N[C@@H](Cc3ccccc3)CO2)c1,-21.6%,-0.7%
CC(C)C[C@@H](CC(=O)N[C@H](CC(=O)N[C@@H]1CCNC[C@H]1C(=O)N[C@H](CC(=O)N[C@@H](CCC(=O)O)CC(=O)O)Cc1c[nH]c2ccccc12)C(C)C)NC(=O)[C@@H]1CCCC[C@H]1N,-14.3%,-0.2%
CCCCCC(=O)/C=C/[C@H]1[C@H](O)CC(=O)[C@@H]1C/C=C\CCCC(=O)O,-1.9%,4.3%
CCOc1ccccc1-c1ccc(C(=O)O)o1,-10.1%,-10.0%
